# Source: PubChem BioAssay
# Resorufin autofl: qHTS Assay for Spectroscopic Profiling in Resorufin Spectral Region | Compound fluorescence, resorufin region 547/598 nm, buffer; hits give high values | max dye-equivalent concentration, M | hit rate 0.04% among 59,000; active = above 10 nM dye equivalent; inconclusive = 1 to 10 nM; inactive = 1 nM or less; a few of its hits are not listed in these tables; further: highest value over a series up to 38 µM
#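 Compounds in 100 mM Tris buffer, pH 8.0, incubated 15 min at room temperature, then read with 547 nm excitation and 598 nm emission filters. Fluorescence was converted to dye-equivalent concentration using an on-plate six-point resorufin standard curve.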
# AID923: qHTS Assay for Allosteric/Competitive Inhibitors of Caspase-1: Spectroscopic Profiling in AFC Spectral Region | compound fluorescence, AFC spectral region (405/520 nm); almost no hit is shown here | Potency, µM (doses to about 57.5 µM), without a hit: at the top dose fluorescence increase, usual class: activators | hit rate 1.1% among 75,000 | AID 923, 2007; active means well fitted activation curve with a large enough effect; inconclusive means small, poorly fitted or top-dose-only effect;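 further: potency means the concentration at half of the fitted maximal effect; 0% is about no effect; scaled to a free AFC standard on each plate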
#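 Titrations up to 57 uM read every 20 sec for 3 min (405/520 nm) with 50 nM caspase 1 and 5 uM Ac-WEHD-AFC, pH 7.5 HEPES buffer. Fluorescence-vs-time intercept gave baseline, scaled against on-plate AFC standard.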
# A488 autofl: qHTS Assay for Spectroscopic Profiling in A488 Spectral Region; compound autofluorescence, A488 spectral region, dye equivalency; hits give high values; max dye equivalency, M; hit rate 0.1% among 59,000; active = above 10 nM dye equivalent; inconclusive = 1 to 10 nM; inactive = 1 nM or less; about half of its hits are not listed in these tables;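 further: highest value over a series up to 38 µM; compound alone in buffer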
#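 Spectroscopic profiling in the A488 region: compounds in pH 8.0 Tris (100 mM), 15 min RT, CCD imaging with 480 nm excitation and 540 nm emission; responses normalized against A488 dye standards.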
# A647 autofl: qHTS Assay for Spectroscopic Profiling in A647 Spectral Region. Compound fluorescence, A647 channel (570/671 nm), Tris buffer. max dye-equivalent concentration, M. 59,000 tested, under 10 active; active means above 1 µM dye equivalent; inconclusive means 0.1 to 1 µM; inactive means 0.1 µM or less;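 further: values scaled relative to a standard on each plate; highest value over a series up to 38 µM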
#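 Spectral profiling of library compounds in pH 8.0 Tris: 15 min room-temperature incubation, single ex/em pair (570/671 nm), response normalized to Alexa 647 equivalents.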
# TSHR agonist: qHTS Assay for Agonists of the Thyroid Stimulating Hormone Receptor; AID 926, 2007; Thyrotropin receptor (Homo sapiens), P16473; HEK293-CNG-TSHR cells (CNG channel as cAMP sensor), membrane potential dye, cAMP; Potency, µM (top dose mostly 57.1 µM), without a hit: top-dose activation, usual class: activators; hit rate 0.48% among 73,000; active = well fitted activation curve of enough size with the parental cells flat; inconclusive = any curve in the parental cells; inactive = parental cells flat and receptor cells flat or falling; further: potency means the concentration at half of the fitted maximal effect; % of control where 0% means no effect; weak receptor curves with flat parental cells got no call and are not listed
# Target sequence (P16473 whole entry, looked up): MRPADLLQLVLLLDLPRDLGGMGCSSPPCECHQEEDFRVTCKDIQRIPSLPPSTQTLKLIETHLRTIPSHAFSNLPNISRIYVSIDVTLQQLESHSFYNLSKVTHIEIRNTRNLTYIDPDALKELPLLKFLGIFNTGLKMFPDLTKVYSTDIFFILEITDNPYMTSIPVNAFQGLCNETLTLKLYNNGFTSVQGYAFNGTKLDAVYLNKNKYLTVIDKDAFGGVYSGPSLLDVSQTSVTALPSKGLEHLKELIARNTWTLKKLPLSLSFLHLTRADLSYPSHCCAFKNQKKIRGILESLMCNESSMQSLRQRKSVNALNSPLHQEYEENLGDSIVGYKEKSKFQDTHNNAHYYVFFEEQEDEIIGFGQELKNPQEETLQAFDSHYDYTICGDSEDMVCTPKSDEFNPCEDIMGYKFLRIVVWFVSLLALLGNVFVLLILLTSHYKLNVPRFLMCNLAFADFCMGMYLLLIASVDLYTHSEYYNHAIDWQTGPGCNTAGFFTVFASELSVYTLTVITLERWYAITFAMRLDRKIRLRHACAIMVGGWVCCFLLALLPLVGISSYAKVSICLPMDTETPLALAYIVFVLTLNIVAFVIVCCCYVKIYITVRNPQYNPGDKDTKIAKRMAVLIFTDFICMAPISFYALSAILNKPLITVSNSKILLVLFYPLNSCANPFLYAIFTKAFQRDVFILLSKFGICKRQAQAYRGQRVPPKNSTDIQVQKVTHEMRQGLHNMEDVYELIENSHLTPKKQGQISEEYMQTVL
#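 cAMP rise detected as CNG-channel membrane depolarization by fluorescent dye (emission 590 nm), 30 min after compound, following 60 min dye loading containing 100 uM RO 20-1724 at room temperature. Cells: TSHR/CNG HEK 293, with parental CNG HEK 293 as control.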
# * = called active by the depositor; i = inactive; ? = inconclusive; · = not tested or not shown; & = joins results of further samples; [ ] = another dose, or the depositor's remark.
# Second line of a record: Resorufin autofl	AID923	A488 autofl	A647 autofl	TSHR agonist
COc1ccccc1N1CCN(C(=O)c2cc(-c3ccc(C)cc3)on2)CC1
 : i	0.0%	i	3.4e-08	·
NCCCCN=C(N)N
 : i	0.0%&-0.2%&-2.7%	i	6.2e-08	12%&-2%
CSc1nnc(-c2nnc(SC)n2-c2ccccc2)n1-c1ccccc1
 : i	-0.4%	i	2.7e-08	·
COc1ccc(CNC(=O)c2cc(-n3cnnc3)ccc2Cl)cc1
 : i	-1.8%	i	6e-09	-1%
CC(C)(C)SCCNC(=O)c1ccc(NS(C)(=O)=O)cc1
 : i	2.1%	i	1e-09	-3%
COC(=O)c1ccccc1NC(=O)CS(=O)(=O)Cc1nc(-c2ccc(C)cc2)oc1C
 : ·	2.6%	·	·	?
COc1ccc2nc3oc(C(=O)N4CCN(c5cccc(C(F)(F)F)c5)CC4)cc3cc2c1
 : i	0.6%	i	1e-09	?
C=CCNc1nc(NCCN2CCOCC2)nc(OC)n1
 : i	0.5%	i	5.7e-09	?
O=C(c1ccc(F)cc1)C1CCN(CCCCc2ccccc2)CC1
 : ·	-3.1%	·	·	5%
O=C(CC1CCCC1)OCn1nnc2ccccc2c1=O
 : i	-0.3%	i	3.5e-08	5%
Cc1cc(NC(=O)CSc2nnc(C)c(=O)[nH]2)no1
 : ·	0.6%	·	·	1%
O=c1[nH]c(N2CCOCC2)nc2ncn(Cc3ccccc3)c12
 : i	-0.7%	i	2.8e-09	-7%
Cn1c(=O)cnc2cnc(Nc3ccccc3)nc21
 : i	1.1%	i	3.9e-09	?
COc1cccc(CNC(=O)C2CCN(S(=O)(=O)c3c(C)nn(C)c3C)CC2)c1
 : ·	0.1%	·	·	-3%
COc1ccc(CCNC(=O)Cc2cc(=O)[nH]c(=O)[nH]2)cc1OC
 : ·	-6.0%	·	·	-6%
Cc1ccc(CNC(=O)CSc2nc3ccccc3c(=O)n2CCCO)cc1
 : i	0.2%	i	1.2e-08	16%
O=C(c1nc2nc(-c3ccccc3)cc(C(F)(F)F)n2n1)N1CCOCC1
 : i	2.2%	i	2.1e-08	2%
CCNC(=O)NC(=O)C(C)OC(=O)c1cccnc1SC (centres undefined)
 : i	-1.5%	i	7.3e-09	2%
O=C(NCC1CCCO1)[C@@H]1CSC2c3ccccc3C(=O)N21 (some centres undefined)
 : i	-1.5%	i	3.8e-08	-16%
O=C(C1CCCN(S(=O)(=O)c2cccs2)C1)N1CCc2ccccc2C1 (centres undefined)
 : i	1.9%	i	1e-09	10%
O=C(Cn1nc(C(F)(F)F)c2c1CCCC2)Nc1ccc2c(c1)OCO2
 : i	2.1%	i	4.1e-08	2%
Cc1ccc(-c2nn(C)c(=O)c3ccccc23)cc1S(=O)(=O)NCCN1CCOCC1
 : i	-2.2%	i	2.1e-08	7%
Fc1ccccc1N1CCN(Cc2nc(-c3ccc(Cl)cc3Cl)no2)CC1
 : i	-2.3%	i	4e-08	19%
CCCCn1c(SCC(=O)Nc2nnc(C)s2)nnc1-c1ccoc1C
 : i	-0.4%	i	1.4e-08	9%
OCCNc1cc(-n2nc(-c3ccccc3)cc2-c2ccccc2)ncn1
 : i	-0.9%	i	1e-09	5%
CCN(Cc1cc2ccccc2[nH]c1=O)C(=O)C1CCCCC1
 : i	4.7%	i	7.3e-09	2%
CCn1ncc(C2=NOC(C(=O)Nc3c(C)nn(Cc4ccc(F)cc4)c3C)C2)c1C (centres undefined)
 : ·	7.3%	·	·	0%
CCNS(=O)(=O)c1ccc(S(=O)(=O)N(Cc2ccccn2)C2CCCCC2)cc1
 : i	1.3%	i	5.3e-09	?
CCOC(=O)c1sc(NC(=O)c2c(C)nn(Cc3ccccc3)c2C)cc1C
 : i	1.7%	i	2.9e-08	2%
COc1ccc(OC)c(Nc2cc(-c3ccccc3)nc(N)n2)c1
 : i	-0.5%	i	5.5e-08	?
COC(=O)C1=C(N)Oc2cc(C)n(CCc3ccccc3)c(=O)c2C1c1cccnc1 (centres undefined)
 : i	14%	i	4.1e-08	7%
CN1C(=O)CC(P(=O)(c2ccccc2)c2ccccc2)N(C)C1=O (centres undefined)
 : ·	-1.5%	·	·	-3%[11.4 µM]
O=S(=O)(c1ccc(Oc2ccccc2)cc1)N1CCOCC1
 : i	0.7%	i	1.2e-08	15%
c1ccc(-c2nn3nnnc3c3ccccc23)cc1
 : i	-4.1%	i	2.5e-08	9%
COc1ccc(S(=O)(=O)Nc2cc(C)c(O)cc2C(C)C)cc1
 : i	0.1%	i	1e-09	12%
COc1ccccc1-c1cc(C(=O)NC(C)c2ccccc2)no1 (centres undefined)
 : i	-0.3%	i	1e-09	1%[11.4 µM]
Cc1nc2cc(NC(=O)N3CCC(c4ccccc4)C3)ccc2n1C (centres undefined)
 : i	-2.4%	i	3.6e-08	4%
COc1ccc(CCC(=O)NCc2ccco2)cc1
 : i	0.2%	i	9e-09	2%
Cc1nn(CCc2nn[nH]n2)c2nc(C(F)(F)F)cc(C(F)(F)F)c12
 : i	0.9%	i	2e-08	-1%
O=C(C1CCN(S(=O)(=O)c2cccc3nsnc23)CC1)N1CCc2ccccc21
 : i	0.9%	i	5.2e-09	-7%
Cc1ccccc1-c1nnc(-c2ccc(Br)cc2)o1
 : i	0.3%	i	1e-09	?
CCN(CC)C(=O)c1ccc(CS(=O)(=O)c2ccc(OC)cc2)o1
 : ·	-0.4%	·	·	0%
COc1cccc(C(=O)Nc2cccc(-c3nc4ncccc4o3)c2C)c1
 : ·	0.1%	·	·	?
CCN(CC)S(=O)(=O)c1ccc(NC(=O)Cn2c(=O)sc3ccccc32)cc1
 : i	-2.6%	i	1.2e-08	1%
O=C(c1nc2ncccn2n1)N1CCN(c2ccc(F)cc2)CC1
 : i	-0.2%	i	2.4e-09	-2%
COc1cc(-c2nnc(CSc3nc4ccccc4s3)o2)cc(OC)c1OC
 : i	9.8%	i	1e-09	?
COc1ccc(C(c2nnnn2C2CCCC2)N2CCC(C)CC2)c(OC)c1 (centres undefined)
 : i	-0.3%	i	2.6e-09	?
COc1ccccc1NC(=O)C1=C(C)NC(=O)NC1c1cccc(OC)c1OC (centres undefined)
 : ·	3.2%	·	·	?
CCOc1ccc2nc(SCC#N)c(C#N)cc2c1
 : i	3.9%	i	3.9e-09	·
Cc1cn(C(=O)c2cccc(Br)c2)c(C)n1
 : ·	-1.9%	·	·	?
O=C(CCCCCN1C(=O)CCC1=O)NCc1ccccc1
 : i	1.8%	i	1e-09	6%
COc1ccccc1N1CCN(C(=O)c2c(C)cc(=O)oc2C)CC1
 : i	·	i	1.7e-08	·
N#CCCn1c(SCC(=O)c2c[nH]c3ccccc23)nc2ccccc21
 : i	0.7%	i	4.3e-08	0%
CCOC(=O)c1cnc2nc(NCc3ccc(OC)c(OC)c3)[nH]n2c1=O
 : i	-1.0%	i	4.6e-08	6%
O=C(c1ccc(Br)o1)N1CCN(c2ccccn2)CC1
 : i	-2.4%	i	1.6e-09	5%
CCCCCn1c(CN2CCCCC2C)nc2c1c(=O)n(C)c(=O)n2C (centres undefined)
 : i	-2.7%	i	1.6e-08	17%
CC(C)C1C2=C(CC(C)(C)CC2=O)ON1c1ccccc1 (centres undefined)
 : ·	4.1%	·	·	-2%
O=C(Nn1nnnc1Nc1ccccc1)C12CC3CC(CC(C3)C1)C2
 : i	-1.1%	i	4.7e-09	·
Cn1c(=O)c2c(nc(N3CCCC3)n2CC(O)CO)n(C)c1=O (centres undefined)
 : i	0.5%	i	3.3e-08	5%
CCCCNC(=O)Nc1cc(C(=O)OC)ccc1C
 : ·	0.6%	·	·	2%

# (further entries)
# Second line of a record: Resorufin autofl	AID923	A488 autofl	A647 autofl	TSHR agonist
COc1ccc(C(=O)N/N=C2/C(=O)c3c(C)cc(C)cc3CC2(C)C)cc1
 : i	-0.3%[11.5 µM]	i	7.6e-09	1%[11.4 µM]
CCCCCCNC(=O)C(C(=O)OCC)C1CCCCC1 (centres undefined)
 : ·	1.1%	·	·	?
CCCCC1CCC(/C(N)=N/O)CC1 (centres undefined)
 : i	-1.2%	i	5e-08	18%
Cc1cc2cc(CCNC(=O)C(C)C)c(=O)[nH]c2cc1C
 : i	0.7%	i	1e-08	?
COC(=O)c1[nH]c2cccc(Cl)c2c1NC(=O)CN(C)C1CCCCC1
 : i	-0.7%	i	1e-09	19%
c1ccc(-c2nc(CSc3nnc(-c4cccs4)o3)cs2)cc1
 : i	0.4%	i	3.1e-08	?
O=C1[C@H]2[C@H]3[C@H](O)[C@H](O)C/C(=N/OC[C@@H](O)COCc4ccco4)[C@H]3CC[C@@H]2C(=O)N1Cc1ccccc1
 : ·	0.9%[11.5 µM]	·	·	1%[11.4 µM]
COc1cc(CNc2cccc(F)c2)cc(Br)c1O
 : ·	-0.3%	·	·	4%
O=C(c1cc2c(=O)oc3ccccc3c2s1)N1CCN(c2ncccn2)CC1
 : i	-0.8%	i	8.2e-09	-2%[11.4 µM]
COc1ccc(CN(Cc2nc3ccccc3c(=O)[nH]2)C(=O)NC2CCCCC2)cc1
 : i	-0.6%	i	1e-09	5%
O=C(CN1CCN(C(=O)N2CCOCC2)CC1)Nc1ccc(Br)cc1
 : i	-2.0%	i	1e-09	0%
CCOC(=O)c1c(C)[nH]c(C(=O)COc2ccc3c(c2)OCO3)c1C
 : i	1.5%	i	3.5e-08	8%
Cc1ccc(CNc2ccc(N3CCOCC3)cc2)s1
 : i	-0.9%	i	3e-09	-17%
Cc1ccc(C(=O)c2cncc(Br)c2)cc1
 : i	-0.5%	i	3.8e-09	-19%
CCOC(=O)C1=C(CNCc2ccccc2Cl)NC(=O)NC1c1ccc2c(c1)OCO2 (centres undefined)
 : i	0.0%	i	2.6e-08	?
Cc1ccc(C(=O)NC2CCCCCC2)cc1N1CCCC1=O
 : i	-0.9%	i	2.3e-08	-3%[11.4 µM]
CCOc1ccc(NC(=O)CSC(N)=O)cc1
 : i	1.0%	i	7.6e-09	-23%
CCn1c(=O)cc(SCC(=O)N2CCN(c3ccccc3OC)CC2)c2ccccc21
 : i	-0.9%	i	3.3e-08	11%
COc1ccccc1CNc1ncncc1-c1ccccc1CN(C)C
 : i	-2.1%	i	2e-09	9%
COc1ccc(NC(=O)c2ccco2)cc1NC(=O)c1ccc(C)cc1
 : i	-0.9%	i	1.2e-08	7%
NS(=O)(=O)c1ccc(NC(=O)N[C@@H](Cc2ccccc2)C(=O)O)cc1
 : i	0.6%	i	2.8e-08	0%
O=C(Cn1nc(-c2ccccc2)ccc1=O)NCc1ccc2c(c1)OCO2
 : i	-0.1%	i	3.6e-08	0%[11.4 µM]
c1csc(CNc2ncnc3ccc(-c4ccc5c(c4)OCO5)cc23)c1
 : i	-0.3%	i	3.9e-08	?
COc1ccc2[nH]c(=O)c(CN(CC3CCCO3)C(=O)Nc3ccc(F)cc3)cc2c1 (centres undefined)
 : i	-2.3%	i	4.1e-09	22%

# Compounds shown so far that contain a CF3 group:
# Second line of a record: Resorufin autofl	AID923	A488 autofl	A647 autofl	TSHR agonist
COc1ccc2nc3oc(C(=O)N4CCN(c5cccc(C(F)(F)F)c5)CC4)cc3cc2c1
 : i	0.6%	i	1e-09	?
O=C(c1nc2nc(-c3ccccc3)cc(C(F)(F)F)n2n1)N1CCOCC1
 : i	2.2%	i	2.1e-08	2%
O=C(Cn1nc(C(F)(F)F)c2c1CCCC2)Nc1ccc2c(c1)OCO2
 : i	2.1%	i	4.1e-08	2%
Cc1nn(CCc2nn[nH]n2)c2nc(C(F)(F)F)cc(C(F)(F)F)c12
 : i	0.9%	i	2e-08	-1%

# A portion of the library, so the mix of outcomes need not match the whole.
